Yeast UUG start – modulators of yeast start codon fidelity, primary screen, whole organism, S. cerevisiae, single point, plate reader; S. cerevisiae UUG-firefly luciferase reporter, luminescence/redox ratio; activity score, % at 18.7 µM; 350,000 compounds, 0.13% hits; AID 602363, 2012;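 active means replicate mean at a twofold rise or more, about +100% in these data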;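 further: firefly luciferase made from a UUG start codon reports start codon fidelity; reporter light over untreated wells divided by growth signal over untreated wells; some hits fall short of that in this replicate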
Numbers without * were called inactive. Only part of the results is shown; count on the stated rates, not on these rows.

SMILES | Yeast UUG start
CN1c2ccc(-c3cccc(C#N)c3)cc2[C@@H]2[C@@H](CCN2S(=O)(=O)c2ccccc2F)[C@@H]1CO | 23
O=C(Nc1ccccc1)N1C[C@@H]2[C@H](c3ccccc31)[C@@H](CO)N2C(=O)c1cccnc1 | -15
C[C@@H]1CN([C@@H](C)CO)C(=O)Cc2cc(NC(=O)Nc3cccc4ccccc34)ccc2O[C@H]1CN(C)C(=O)Nc1ccccc1 | -7
CN(C)C(=O)[C@H]1[C@H](CO)[C@H]2Cn3c(ccc(C4=CCCC4)c3=O)[C@@H]1N2CC1CC1 | -12
CCCC#Cc1ccc([C@@H]2[C@H]3CN(Cc4cccnc4)CCCCN3[C@H]2CO)cc1 | 18
C[C@@H]1CN([C@H](C)CO)C(=O)c2cccc(NS(=O)(=O)c3ccccc3)c2O[C@@H]1CN(C)Cc1ccc(C(F)(F)F)cc1 | -1
CN1c2ccc(-c3ccc(C#N)cc3)cc2[C@@H]2[C@@H](CCN2C(=O)CC2CC2)[C@H]1CO | -10
COc1ccc(-c2ccc([C@H]3[C@@H](CO)N4CCCCN(C(=O)c5ccc(F)cc5)C[C@@H]34)cc2)cc1 | 21
Cc1cccc(S(=O)(=O)N(C)C[C@H]2OCc3ccccc3-c3ccccc3C(=O)N([C@@H](C)CO)C[C@@H]2C)c1 | 12
C[C@@H]1CN([C@@H](C)CO)C(=O)c2cc(NS(=O)(=O)c3cn(C)cn3)ccc2O[C@H]1CN(C)C(=O)NC1CCCCC1 | -5
Cc1noc(C)c1NC(=O)Nc1ccc2c(c1)C(=O)N([C@H](C)CO)C[C@H](C)[C@H](CN(C)Cc1ccc(-c3ccccc3)cc1)O2 | -8
CCCNC(=O)C[C@@H]1CC[C@H]2[C@@H](COC[C@@H](O)CN2Cc2ccncc2)O1 | -6
Cc1cccc(S(=O)(=O)N2C[C@H](O)COC[C@@H]3O[C@H](CC(=O)NCCCN4CCOCC4)CC[C@H]32)c1 | 9
CO[C@H]1CN(C)C(=O)c2ccc(NC(C)=O)cc2OC[C@H](C)N(C(=O)C2CCCCC2)C[C@@H]1C | 0
O=C(CN1CCOCC1)N1CCCCN2[C@H](CO)[C@H](c3ccc(-c4ccccc4)cc3)[C@H]2C1 | 7
CCC(=O)N1[C@H](CO)[C@H](c2ccc(-c3ccc(F)cc3)cc2)[C@@H]1CN(C)C(C)=O | 0
CN1C(=O)c2cc(NC(=O)c3cnccn3)ccc2OC[C@H]2O[C@@H](CC(=O)N[C@H]3CCN(Cc4ccccc4)C3)CC[C@@H]21 | -2
C[C@@H]1CN([C@H](C)CO)C(=O)c2cc(NC(=O)Nc3cccc4ccccc34)ccc2O[C@@H]1CN(C)Cc1ccc(-c2ccccc2)cc1 | -5
C[C@@H]1CN([C@@H](C)CO)C(=O)c2cccc(NS(=O)(=O)c3ccc(F)cc3)c2O[C@@H]1CN(C)CC1CCCCC1 | 0
COC(=O)C[C@H]1CC[C@@H]2[C@H](COc3ccc(NC(=O)C4CCOCC4)cc3C(=O)N2C)O1 | -4
C[C@H]1CN([C@@H](C)CO)C(=O)Cc2cc(NC(=O)C3CCCCC3)ccc2O[C@H]1CN(C)C(=O)NC1CCCCC1 | 1
COc1ccc(C#Cc2ccc([C@H]3[C@H](CO)N4CCCCN(Cc5ccncc5)C[C@@H]34)cc2)cc1 | -16
C[C@@H]1CN([C@H](C)CO)C(=O)c2cc(NC(=O)c3ccncc3)ccc2O[C@@H]1CN(C)S(=O)(=O)c1cn(C)cn1 | -19
Cc1noc(C)c1NC(=O)N(C)C[C@H]1Oc2ccc(NC(=O)Cc3cn(C)c4ccccc34)cc2C(=O)N([C@H](C)CO)C[C@H]1C | -6
CC(C)NC(=O)Nc1ccc2c(c1)C(=O)N([C@H](C)CO)C[C@@H](C)[C@H](CN(C)C(=O)NC(C)C)O2 | -4
O=C(c1cccnc1)N1C[C@@H]2[C@H](c3ccccc31)[C@@H](CO)N2C(=O)Nc1ccccc1Cl | -11
COc1cccc(S(=O)(=O)N2CCCCN3[C@@H](CO)[C@@H](c4ccc(C#CC(C)C)cc4)[C@@H]3C2)c1 | 13
CNC[C@H]1Oc2c(NC(=O)Nc3ccccc3)cccc2C(=O)N([C@@H](C)CO)C[C@H]1C | 11
C[C@@H]1CN([C@@H](C)CO)C(=O)c2cc(NS(=O)(=O)c3cn(C)cn3)ccc2O[C@H]1CN(C)Cc1ccncc1 | -3
C[C@H](CO)N1C[C@H](C)[C@H](CN(C)CC2CC2)Oc2ccc(NS(=O)(=O)c3cccs3)cc2CC1=O | 5
CO[C@H]1CN(C)C(=O)c2cc(NC(=O)Nc3ccccc3)ccc2OC[C@@H](C)N(C(=O)CN(C)C)C[C@@H]1C | -3
O=C(C[C@H]1C[C@@H]2c3cc(NC(=O)c4cccnc4)ccc3O[C@@H]2[C@@H](CO)O1)NCc1ccncc1 | -11
O=C(C[C@H]1CC[C@@H]2[C@H](COC[C@H](O)CN2Cc2cccc(F)c2)O1)NCCc1ccncc1 | -14
O=C(NCC(F)(F)F)[C@@H]1[C@@H](CO)[C@@H]2Cn3c(cccc3=O)[C@@H]2N1C(=O)C1CCCC1 | 1
Cc1cccc(-c2ccc([C@H]3[C@H](CO)N4CCCCN(C(=O)c5ccncc5)C[C@@H]34)cc2)c1 | -9
C[C@H]1CN([C@@H](C)CO)C(=O)c2cc(NC(=O)Nc3ccccc3)ccc2O[C@H]1CN(C)S(=O)(=O)c1ccc(Cl)cc1 | -4
C[C@@H]1CN([C@@H](C)CO)C(=O)c2cc(NS(=O)(=O)c3cn(C)cn3)ccc2O[C@H]1CN(C)S(=O)(=O)c1ccc(F)cc1 | -6
C[C@@H]1CN([C@H](C)CO)C(=O)Cc2cc(NC(=O)CCC(F)(F)F)ccc2O[C@H]1CN(C)C(=O)Nc1ccc(F)cc1 | 6
C[C@@H]1CN([C@H](C)CO)C(=O)c2cc(NC(=O)Cc3cn(C)c4ccccc34)ccc2O[C@H]1CN(C)Cc1ccc(C(=O)Nc2ccccc2N)cc1 | 1
CN1C[C@H]2[C@@H](c3ccccc31)[C@H](CO)N2C(=O)C1CCCCC1 | -1
CO[C@@H]1CN(C)C(=O)c2ccc(NC(=O)Cc3ccccc3)cc2OC[C@@H](C)N(C(C)=O)C[C@H]1C | 21
O=C(C[C@H]1CC[C@@H]2[C@H](COC[C@@H](O)CN2Cc2ccccc2)O1)N[C@H]1CCN(Cc2ccccc2)C1 | 5
CC(C)CC#Cc1ccc([C@H]2[C@H]3CN(C(=O)Nc4ccccc4)CCCCN3[C@H]2CO)cc1 | 54
C[C@@H]1CN([C@H](C)CO)C(=O)c2cccc(NS(=O)(=O)c3ccc(F)cc3)c2O[C@H]1CN(C)CC1CCCCC1 | 2
C[C@@H]1CN([C@@H](C)CO)C(=O)c2cccc(NC(=O)C3CCOCC3)c2O[C@H]1CN(C)S(=O)(=O)c1ccccc1 | 2
C[C@@H]1CN([C@@H](C)CO)C(=O)c2cccc(NC(=O)Nc3ccccc3)c2O[C@@H]1CN(C)Cc1ccncc1 | 14
C[C@H](O)C#Cc1ccc([C@@H]2[C@H](CO)N3CCCCN(C(=O)c4ccc(F)cc4)C[C@@H]23)cc1 | 9
CN1c2ccc(Br)cc2[C@@H]2[C@@H](CCN2S(=O)(=O)c2ccccc2)[C@@H]1CO | -8
C[C@H]1CN([C@@H](C)CO)C(=O)c2cccc(NS(C)(=O)=O)c2O[C@@H]1CN(C)S(=O)(=O)c1ccc(Cl)cc1 | -3
CCCN1C[C@H](C)[C@H](OC)CN(C)C(=O)c2cc(NS(=O)(=O)c3cn(C)cn3)ccc2OC[C@H]1C | 0
Cc1noc(C)c1NC(=O)Nc1cccc2c1O[C@@H](CN(C)S(=O)(=O)c1ccc(F)cc1)[C@H](C)CN([C@H](C)CO)C2=O | -1
C[C@@H]1CN([C@@H](C)CO)C(=O)c2cccc(NC(=O)Nc3ccccc3)c2O[C@@H]1CN(C)C(=O)Nc1ccc(F)cc1 | 13
COc1ccc(NC(=O)N(C)C[C@@H]2Oc3ccc(NC(=O)C4CCCCC4)cc3C(=O)N([C@H](C)CO)C[C@H]2C)cc1 | -2
C[C@H](CO)N1C[C@H](C)[C@@H](CN(C)S(C)(=O)=O)Oc2ccc(NC(=O)Nc3cccc4ccccc34)cc2C1=O | 18
O=C(C1CCOCC1)N1C[C@H]2[C@@H](c3ccccc31)[C@@H](CO)N2Cc1ccccc1 | 11
CCC(=O)Nc1ccc2c(c1)OC[C@@H](C)N(C(=O)Cc1cccnc1)C[C@@H](C)[C@H](OC)CN(C)C2=O | 9
O=C(NC[C@H]1[C@H](c2ccccc2)[C@@H](CO)N1C(=O)Cc1ccncc1)C1CCC1 | -3
O=C(CC1CC1)N1[C@H](CO)[C@H]2c3ccccc3N(S(=O)(=O)c3ccccc3)C[C@H]21 | 11
CC(=O)NC[C@@H]1[C@H](c2ccccc2)[C@@H](CO)N1C(=O)Cc1cccnc1 | 5
C[C@@H]1CN([C@H](C)CO)C(=O)c2cc(NC(=O)Nc3ccc4c(c3)OCO4)ccc2O[C@H]1CN(C)S(C)(=O)=O | 0

11 structures out of the list, arranged by length of the SMILES, low to high.
SMILES | Yeast UUG start
CCCNC(=O)C[C@@H]1CC[C@H]2[C@@H](COC[C@@H](O)CN2Cc2ccncc2)O1 | -6
O=C(NC[C@H]1[C@H](c2ccccc2)[C@@H](CO)N1C(=O)Cc1ccncc1)C1CCC1 | -3
CC(C)CC#Cc1ccc([C@H]2[C@H]3CN(C(=O)Nc4ccccc4)CCCCN3[C@H]2CO)cc1 | 54
CCC(=O)N1[C@H](CO)[C@H](c2ccc(-c3ccc(F)cc3)cc2)[C@@H]1CN(C)C(C)=O | 0
COC(=O)C[C@H]1CC[C@@H]2[C@H](COc3ccc(NC(=O)C4CCOCC4)cc3C(=O)N2C)O1 | -4
Cc1cccc(-c2ccc([C@H]3[C@H](CO)N4CCCCN(C(=O)c5ccncc5)C[C@@H]34)cc2)c1 | -9
O=C(NCC(F)(F)F)[C@@H]1[C@@H](CO)[C@@H]2Cn3c(cccc3=O)[C@@H]2N1C(=O)C1CCCC1 | 1
CCC(=O)Nc1ccc2c(c1)OC[C@@H](C)N(C(=O)Cc1cccnc1)C[C@@H](C)[C@H](OC)CN(C)C2=O | 9
C[C@@H]1CN([C@H](C)CO)C(=O)c2cccc(NS(=O)(=O)c3ccc(F)cc3)c2O[C@H]1CN(C)CC1CCCCC1 | 2
C[C@@H]1CN([C@H](C)CO)C(=O)c2cccc(NS(=O)(=O)c3ccccc3)c2O[C@@H]1CN(C)Cc1ccc(C(F)(F)F)cc1 | -1
C[C@@H]1CN([C@H](C)CO)C(=O)c2cc(NC(=O)Cc3cn(C)c4ccccc34)ccc2O[C@H]1CN(C)Cc1ccc(C(=O)Nc2ccccc2N)cc1 | 1

Further compounds:
SMILES | Yeast UUG start
O=C(c1ccc(F)cc1)N1CC[C@@H]2[C@H](CO)Nc3ccc(C#Cc4ccc(F)cc4)cc3[C@@H]21 | -17
CCCN1C[C@H](C)[C@H](OC)CN(C)C(=O)c2cc(NC(=O)NC3CCCCC3)ccc2OC[C@H]1C | 8
O=C(C1CC1)N1C[C@H]2[C@@H](c3ccccc31)[C@@H](CO)N2C(=O)c1ccccc1 | 2
CN1C[C@@H]2[C@H](c3ccccc31)[C@@H](CO)N2C(=O)CN1CCOCC1 | -13
Cc1ccccc1S(=O)(=O)N1C[C@H](O)COC[C@H]2O[C@@H](CC(=O)N3CCC(Cc4ccccc4)CC3)CC[C@@H]21 | 6
C[C@@H]1CN([C@H](C)CO)C(=O)c2cc(N(C)C)ccc2O[C@H]1CN(C)C(=O)Nc1ccc(C(F)(F)F)cc1 | 14
CN(C)C(=O)C[C@H]1CC[C@@H]2[C@H](COC[C@H](O)CN2C(=O)C2CCOCC2)O1 | 0
C[C@H](CO)N1C[C@H](C)[C@H](CN(C)S(=O)(=O)c2cccs2)Oc2c(NC(=O)Nc3ccc4c(c3)OCO4)cccc2C1=O | 7
CC(C)(O)C#Cc1ccc([C@@H]2[C@@H](CO)N3CCCCN(C(=O)c4ccncc4)C[C@@H]23)cc1 | -6
COc1ccc(CN(C)C[C@@H]2Oc3ccc(NC(=O)CCN4CCOCC4)cc3CC(=O)N([C@@H](C)CO)C[C@@H]2C)cc1 | 21
O=C(c1cnccn1)N1CC[C@@H]2[C@@H](CO)Nc3ccc(-c4ccccc4)cc3[C@@H]21 | -2
C[C@H](CO)N1C[C@H](C)[C@@H](CN(C)C(=O)Nc2ccccc2)Oc2ccc(NC(=O)c3ccncc3)cc2CC1=O | 0
Cc1noc(C)c1S(=O)(=O)Nc1cccc2c1O[C@@H](CN(C)C)[C@@H](C)CN([C@H](C)CO)C2=O | 10
C[C@@H]1CN([C@H](C)CO)C(=O)c2cc(NC(=O)c3ccncc3)ccc2O[C@H]1CN(C)C(=O)NC1CCCCC1 | 3
CC(=O)N1CCCCN2[C@H](CO)[C@@H](c3ccc(-c4cccc(C)c4)cc3)[C@H]2C1 | -6
Cc1cccc(S(=O)(=O)N2C[C@H](O)COC[C@H]3O[C@H](CC(=O)NCCCN4CCOCC4)CC[C@@H]32)c1 | -12
Cc1noc(C)c1S(=O)(=O)Nc1cccc2c1O[C@H](CN(C)C(=O)Nc1ccc3c(c1)OCO3)[C@H](C)CN([C@@H](C)CO)C2=O | -1
O=C(Nc1ccccc1)N1CCCCN2[C@H](CO)[C@H](c3ccc(C#Cc4cccnc4)cc3)[C@@H]2C1 | -4
C[C@H](CO)N1C[C@H](C)[C@H](CN(C)C(=O)NC2CCCCC2)Oc2c(NS(=O)(=O)c3ccccc3)cccc2C1=O | 6
COCC(=O)NC[C@@H]1[C@@H](c2ccccc2)[C@H](CO)N1C(C)=O | -3
COc1ccc(S(=O)(=O)Nc2ccc3c(c2)CC(=O)N([C@H](C)CO)C[C@@H](C)[C@@H](CN(C)Cc2ccncc2)O3)cc1 | -2
COCC#Cc1ccc([C@@H]2[C@H](CO)N3CCCCN(C(=O)Nc4cc(F)ccc4F)C[C@@H]23)cc1 | -1
C[C@@H]1CN([C@H](C)CO)C(=O)c2cccc(NC(=O)Nc3ccc(F)cc3)c2O[C@H]1CN(C)Cc1ccc(Oc2ccccc2)cc1 | 3
COCC(=O)N1[C@H](CO)[C@H]2c3ccccc3N(C(=O)Nc3ccccc3F)C[C@H]21 | 14

Assay outcomes from PubChem.
